CBX7 AlphaScr = blocks human CBX7 binding to H3K27me3 peptide. O95931. AlphaScreen His6-CBX7 / biotin-H3K27me3 peptide binding; stronger effect = lower value. normalised signal (fraction of DMSO) (concentration not given with the values). hit rate 1.1% among 66,000. AID 1224903; in the data active = normalised signal below about 0.5;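 note: 100 nL library stock added to about 20 µL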
Target sequence (O95931 whole entry, looked up): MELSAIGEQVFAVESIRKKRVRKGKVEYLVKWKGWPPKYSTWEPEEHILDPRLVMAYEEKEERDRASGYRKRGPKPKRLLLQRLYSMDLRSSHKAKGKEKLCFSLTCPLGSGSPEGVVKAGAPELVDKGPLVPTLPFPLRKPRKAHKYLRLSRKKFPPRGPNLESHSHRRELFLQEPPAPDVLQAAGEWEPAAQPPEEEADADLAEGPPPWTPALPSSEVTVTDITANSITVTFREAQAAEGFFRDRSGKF
CBX7 AlphaScr z-score = further read-out of CBX7 AlphaScr, marked with its call; z-score; measured here: z-score of CBX7 signal; some inactives read as strong as hits; reference of the scale not given here;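 same signal on another scale; lower means less binding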
Active calls of the source: *. Only part of the results is shown. The share of hits here may be higher or lower than overall.

SMILES	CBX7 AlphaScr	CBX7 AlphaScr z-score
Cc1nnc(NC(=O)c2ccc(S(=O)(=O)N3CCCC3)cc2)o1	0.0237*	-1.29*
O=C(NCCc1ccc(Cl)cc1)c1ccc2c(c1)N(Cc1ccc(Cl)cc1)C(=O)CS2	1.13	5.23
COc1cc2c(=O)c(S(=O)(=O)c3ccc(F)cc3)cn(CC(=O)Nc3ccccc3)c2cc1OC	1.01	0.214
CCCC(=O)NCCc1nc2ccccc2n1Cc1c(F)cccc1Cl	1.06	0.931
COc1ccc(-c2nc3cc(NC(=O)COc4ccc(C)cc4C)ccc3o2)cc1Cl	1	0.139
CCC(=O)NCCc1nc2ccccc2n1Cc1c(F)cccc1Cl	0.951	-0.981
O=C(COc1ccc2c(c1)C(=O)CC1(CCCCC1)O2)NCc1ccc(F)cc1	0.669	-3.73
O=C(NC1CCCc2ccccc21)C1CCN(S(=O)(=O)c2cccnc2)CC1 (stereo not given)	1.05	1.4
Cc1ccc(Cn2c(=O)c3cccnc3n(Cc3ccc(C#N)cc3)c2=O)cc1	1.04	0.75
COc1cc(OC)c(NC(=O)CCc2c(C)nc3nc(C)nn3c2C)cc1Cl	1.26	1.11
O=C(Cn1ncc2c1-c1ccccc1OC2)NCc1ccccc1Cl	1.17	1.01
O=C(NCc1cccnc1)c1nnc(Cc2ccc(F)cc2)o1	1.02	0.24
CC1CCCCN1S(=O)(=O)c1ccc(C(=O)Nc2nnc(-c3cccs3)o2)cc1 (stereo not given)	0.92	-1.8
COc1ccc(C2CC(=O)C3=C(C2)Nc2ccccc2NC3c2cc(Cl)c(O)c(OC)c2)cc1 (stereo not given)	1.1	1.55
Cc1c(C(=O)NCc2cccnc2)oc2ccc(S(=O)(=O)N3CCCC3)cc12	1.12	0.576
CCc1ccc(NC(=O)C2CCN(S(=O)(=O)c3ccc(C)cc3)CC2)cc1	1.04	1.81
O=C(NCCN1CCCCCC1)c1ccc2c(c1)ncn2C1CCCCC1	0.998	-0.1
Cc1oc(-c2cccc(Br)c2)nc1CN1CCC(C(=O)NC2CC2)CC1	1.18	3.68
Cc1ccc2[nH]c(C)c(CCNS(=O)(=O)c3ccc(C(C)(C)C)cc3)c2c1	1.01	0.144
CCCCNC(=O)c1c[nH]c2ccc(S(=O)(=O)N3CCC(C)CC3)cc2c1=O	1	0.0138
COc1ccc(-c2noc(CCC(=O)N(C)c3cccc(Cl)c3)n2)cc1	0.881	-1.72
CCCCC(CC)CNS(=O)(=O)c1ccc2c(c1)CCN2C(=O)CC (stereo not given)	1.17	1.86
CCC(CC)C(=O)NCCc1cc2c(C)ccc(C)c2[nH]c1=O	1.1	0.165
CCOC(CNC(=O)c1cn(CC)c2nc(C)ccc2c1=O)OCC	0.854	-0.146

Given bar-delimited: entries from further up.
structure | CBX7 AlphaScr | CBX7 AlphaScr z-score
O=C(NC1CCCc2ccccc21)C1CCN(S(=O)(=O)c2cccnc2)CC1 (stereo not given) | 1.05 | 1.4
Cc1ccc(Cn2c(=O)c3cccnc3n(Cc3ccc(C#N)cc3)c2=O)cc1 | 1.04 | 0.75
COc1cc(OC)c(NC(=O)CCc2c(C)nc3nc(C)nn3c2C)cc1Cl | 1.26 | 1.11
O=C(Cn1ncc2c1-c1ccccc1OC2)NCc1ccccc1Cl | 1.17 | 1.01
O=C(NCc1cccnc1)c1nnc(Cc2ccc(F)cc2)o1 | 1.02 | 0.24
CC1CCCCN1S(=O)(=O)c1ccc(C(=O)Nc2nnc(-c3cccs3)o2)cc1 (stereo not given) | 0.92 | -1.8
COc1ccc(C2CC(=O)C3=C(C2)Nc2ccccc2NC3c2cc(Cl)c(O)c(OC)c2)cc1 (stereo not given) | 1.1 | 1.55
Cc1c(C(=O)NCc2cccnc2)oc2ccc(S(=O)(=O)N3CCCC3)cc12 | 1.12 | 0.576
CCc1ccc(NC(=O)C2CCN(S(=O)(=O)c3ccc(C)cc3)CC2)cc1 | 1.04 | 1.81
O=C(NCCN1CCCCCC1)c1ccc2c(c1)ncn2C1CCCCC1 | 0.998 | -0.1
Cc1oc(-c2cccc(Br)c2)nc1CN1CCC(C(=O)NC2CC2)CC1 | 1.18 | 3.68
Cc1ccc2[nH]c(C)c(CCNS(=O)(=O)c3ccc(C(C)(C)C)cc3)c2c1 | 1.01 | 0.144
CCCCNC(=O)c1c[nH]c2ccc(S(=O)(=O)N3CCC(C)CC3)cc2c1=O | 1 | 0.0138
COc1ccc(-c2noc(CCC(=O)N(C)c3cccc(Cl)c3)n2)cc1 | 0.881 | -1.72

The results go on.
SMILES	CBX7 AlphaScr	CBX7 AlphaScr z-score
Cc1ccc(C(=O)Nc2nc3ccccc3n2CCN2CCOCC2)cc1	0.973	-0.789
Nc1c(-c2nc(-c3ccccc3)cs2)c2ccccn2c1C(=O)c1ccc(Cl)cc1	1.12	5.31
Cc1cc(N(C)Cc2ccccc2)nc(-c2ccccc2)n1	1.12	3.35
CCc1ccc(CN(C(=O)COc2ccc(CC)cc2)C2CCS(=O)(=O)C2)cc1 (stereo not given)	0.83	-0.17
Cc1cccc(-c2noc(COc3cc(C)cc(C)c3C)n2)c1	1.66	7.24
Cc1ccc(NC(=O)c2cc3c(s2)-c2c(C)cccc2OC3)cc1F	1.04	1.42
CC(C)n1cnc2cc(NCc3ccncc3)ccc21	0.932	-1.95
Cc1cccc(-c2noc(COc3ccc(C)cc3Br)n2)c1	1.25	8.86
CCN(CC)c1nc(C)nc2sc(C(=O)Nc3ccccc3OC)c(C)c12	1.09	2.34
Cc1ccc(C)c(CSc2nnc(Cc3cc(=O)[nH]c(=O)[nH]3)n2-c2ccc(F)cc2)c1	1.01	0.395
Cc1ccc(Nc2nnc(-c3ccc(C)c(S(=O)(=O)NCc4ccccn4)c3)c3ccccc23)c(C)c1	1.04	0.537
COc1cccc(CNc2nc3ccccc3n2CCN2CCOCC2)c1OC	1.07	2.89
O=C(Nc1ccc(-c2noc(CCc3ccccc3)n2)cc1)c1cccs1	1.01	0.154
CCCc1ccc(OCc2nc(-c3nonc3N)no2)cc1	0.989	-0.298
CCCN(CCC)C(=O)c1c[nH]c2ccc(S(=O)(=O)Nc3ccccc3CC)cc2c1=O	0.996	-0.052
CNC(=O)c1ccc2nc(N3CCOCC3)sc2c1	1.21	1.99
COc1ccc(NC(=O)C2CCCN(CCCc3ccccc3)C2)cc1OCC(C)C (stereo not given)	0.953	-1.38
CCCN(C(=O)Cn1nc(Cc2ccncc2)c2ccccc2c1=O)c1cccc(C)c1	0.973	-1.42
Cc1cc(N2CCN(C)CC2)nc2ccc(NC(=O)CCC(=O)NCC3COc4ccccc4O3)cc12 (stereo not given)	0.993	-0.308
CN(CCc1ccccn1)C(=O)c1ccc2c(c1)NC(=O)c1ccccc1N2	1.15	1.17
Cc1ccn2c(Nc3ccc(F)cc3)c(-c3ccccn3)nc2c1	0*	-26.7*
Cc1cc(NC(=O)CSc2nnc(CNC(=O)c3c(F)cccc3Cl)o2)no1	0.0292*	-15.9*
COc1ccc(C(=O)N2CC(=O)Nc3ccc(F)cc3C2c2ccccc2)c(OC)c1 (stereo not given)	1.01	0.029
N#CC1CCN(C(=O)c2cnc(N3CCN(c4ncccn4)CC3)c3ccccc23)CC1	1.04	1.01
CCOc1ccc(S(=O)(=O)c2cn(Cc3ccc(OC)cc3)c3ccc(OC)cc3c2=O)cc1	0.918	-3.09
COc1cccc(OC)c1C(=O)Nc1cccc(-c2nc3cc(C)ccc3o2)c1	0.905	-0.107
COc1ccc2nc(NC(=O)CCCOc3cccc(C)c3)sc2c1	1.03	0.826
CCOC(=O)C1CCN(c2cc(=O)n(-c3ccccc3Cl)c(=O)[nH]2)CC1	0.897	-1.98
CCOc1ccc(NC(=O)c2cccc3c2C(=O)N(CCOC)C3)cc1	1.06	2.28
COc1cc2c(cc1OC)C(c1cccc(F)c1)NCC2 (stereo not given)	1.03	0.469
CCc1ccc2c(c1)c(=O)c(S(=O)(=O)c1ccc(F)cc1)cn2CC(=O)Nc1ccccc1	0.995	-0.184
COC(=O)c1ccc(Nc2nnc(-c3ccc(C)c(S(=O)(=O)N4CCCCC4)c3)c3ccccc23)cc1	1.05	0.12
FC(F)(F)c1cc(-c2cccs2)nc(NCc2cccs2)n1	1.12	0.949
CCC(=O)Nc1ccc(Nc2nc3cc(Cl)c(Cl)cc3nc2-n2nc(C)cc2C)cc1	1.06	2.27
COCCNC(=O)c1ccc2c(c1)N(Cc1ccc(F)cc1)C(=O)c1ccccc1S2=O (stereo not given)	1.04	1.04
Cc1cccc(N2CCN(C(=O)C3=CCN(S(=O)(=O)c4ccc(F)cc4)CC3)CC2C)c1 (stereo not given)	0.924	-2.13
COc1ccc(-n2nc(C(=O)Nc3ccc(C(F)(F)F)cc3)c3ccccc3c2=O)cc1Cl	1.19	3.69
CNc1nc(-c2cccs2)cc(C(F)(F)F)n1	1.31	5.28
CCCCNC(=O)c1nc(-c2ccc(OC)c(OC)c2)oc1C	0.99	-0.427
COc1ccc(NC(=O)C2CC(c3ccc(OC)c(OC)c3)=NO2)cc1 (stereo not given)	0.973	-0.999
CC(C)CCNC(=O)C1C2C(=O)N(Cc3ccccc3)CC23C=CC1(C)O3 (stereo not given)	1.08	0.489
CCCCn1c(CNC(=O)c2ccc(F)cc2)nc2ccccc21	1.14	1.64
CCOC(=O)c1ccc2c(c1)NC(=O)C(N1CCN(c3ccc(Cl)cc3)CC1)S2 (stereo not given)	1.53	1.09
CCOc1ccc2nc(N3CCCC(C(=O)N4CCC(C(N)=O)CC4)C3)sc2c1 (stereo not given)	1.02	0.511
Cc1ccc2nc(-c3ccc(NCc4cccnc4)cc3)sc2c1	1.2	2.16
CCOc1ccc(NC(=O)c2cn(C)c(=O)c3ccccc23)cc1	1.08	0.516
O=C(CC1Sc2ccccc2NC1=O)Nc1ccc(F)c(Cl)c1 (stereo not given)	1.02	0.451
CN(C)CCCN1C(=O)CCn2c3c(c4cccc1c42)CCCC3	0.898	-2.84
CS(=O)(=O)c1ccc2nc(NC(=O)c3ccc(Cl)cc3)sc2c1	1	0.106
COc1ccc(-c2noc(CCC(=O)NCCc3ccc(OC)c(OC)c3)n2)cc1	1.04	1.17
Cc1cccc2c1-c1sc(C(=O)N(CCC#N)c3ccccc3)cc1CO2	1.17	4.92
CC(=O)Nc1c(C(C)=O)c(C)nc2ccccc12	0.945	-0.887
CCCCNC(=O)C1CC(=O)N(CCC(C)C)C1 (stereo not given)	1	0.0113
CC(=O)NCCc1nc2ccccc2n1Cc1ccccc1Cl	1.12	1.11
COc1cc(NC(=O)c2c(-c3ccccc3)noc2C)c(OC)cc1Cl	0.904	-1.1
CCn1cc(C(=O)Nc2cc(C)on2)c2cc(OC)c(OC)cc2c1=O	0.981	-0.488
CCCc1nnc(NC(=O)Nc2ccc(OC)cc2)s1	1.01	0.104
COc1ccccc1-c1cc(C(=O)Nc2cc(C(F)(F)F)ccc2Cl)no1	0.985	-0.4
CC(CNC(=O)C(C)n1ncc2ccccc21)c1ccccc1 (stereo not given)	0.942	-1.43
Cc1ccc(Cn2nnc3c(=O)n(CC(=O)N4CCCc5ccccc54)cnc32)cc1	0.931	-1.12
The list goes on:
SMILES	CBX7 AlphaScr	CBX7 AlphaScr z-score
CCC1C(c2ccccc2)NC(c2ccccc2)CC1(C)O (stereo not given)	1.07	1.49
Cn1c(C(=O)N2CCC(C(=O)NC3CCCc4ccccc43)CC2)cc2sccc21 (stereo not given)	0.98	-0.364
COc1ccc(C(c2sc3nc(C)nn3c2O)N2CCC(O)CC2)cc1OC (stereo not given)	1.02	0.961
CC(c1cccnc1)N(C(=O)Nc1ccc(Cl)c(Cl)c1)C1CCCCC1 (stereo not given)	1.03	1.63
CCCCOc1ccc(C(=O)N(Cc2ccccc2Cl)C2CCS(=O)(=O)C2)cc1 (stereo not given)	0.877	-0.123
CC(NC(=O)C(=O)NCCN1CCOCC1)C(c1cccs1)N1CCN(Cc2ccccc2)CC1 (stereo not given)	1.24	2.49
COc1cccc(C(=O)Nc2nnc(COc3ccccc3F)s2)c1	1.05	0.217
Cc1ccc(-n2ncc3c(=O)n(-c4ccc(C)c(F)c4)c(C)nc32)cc1C	0.919	-1.04
COc1ccc(OC2C(=O)N(CCc3ccc(Cl)cc3)C2c2ccc3c(c2)OCO3)cc1 (stereo not given)	0.961	-0.137
CCN1CCN(C(=O)c2c[nH]n3c(=O)c(Cc4cccc(C)c4)c(C)nc23)CC1	1.04	0.37
COCCNC(=O)CSc1nc(-c2cccc(C)c2)[nH]c1-c1ccccc1	0.893	-1.84
O=C(NCC1CCCO1)c1cc2nc(-c3ccc4c(c3)OCO4)cc(C(F)(F)F)n2n1 (stereo not given)	0.913	-0.838
COc1cc2c(cc1OC)C(=O)Cc1ccc3c(c1CN(C)CC2)OCO3	1.02	0.442
Cc1cc(C)nc(NS(=O)(=O)c2ccc(Nc3nc(-c4ccc(C(C)C)cc4)cs3)cc2)n1	0.958	-0.913
N#Cc1ccc(NC(=O)C2CC(c3ccc(F)cc3)=NO2)cc1 (stereo not given)	1.05	2.1
CC1CCN(S(=O)(=O)c2ccc3c(c2)N(CC(=O)NCCN2CCCC2)C(=O)CS3)CC1	1.05	1.57
CCOC(=O)Cc1nnc(NC(=O)c2cccc(C)c2)s1	1.19	1.74
COc1ccc(-n2ccnc2SCC(=O)Nc2cc(C)cc(C)c2)cc1	0.936	-0.983
COc1ccc(C(=O)Nc2ccc3nc(N4CCOCC4)cc(C)c3c2)cc1OC	1.03	0.191
Fc1ccc(-c2csc(N3CCN(Cc4ccc5c(c4)OCO5)CC3)n2)cc1	0.96	-0.99
CCCCC(=O)N1c2ccccc2NC2=C(C(=O)CCC2)C1c1ccc(OC)c(OC)c1 (stereo not given)	0.996	-0.105
O=C(Nc1cc(-c2nc3ccccc3s2)ccc1Cl)c1ncn[nH]1	0.848	-4.33
COc1ccc(C)cc1NC(=O)C(Cc1ccccc1)NS(=O)(=O)c1ccc2c(c1)CCC(=O)N2 (stereo not given)	0.934	-1.25
CCOc1ccc(CNC(=O)CCc2cn(Cc3ccccc3)c3ccccc23)cc1	1.08	1.34
COc1ccc(C(=O)c2cn(Cc3ccc(F)cc3)c3ccccc3c2=O)cc1	0.74	-2.48
O=C(Cc1cccs1)N1CCNc2ccccc2C1	0.953	-0.597
CC1CC(C)CN(C(=O)c2cn(C3CCCC3)c(=O)c3c2c2ccccc2n3C)C1 (stereo not given)	1.01	0.336
